KCNQ2 enhance – potentiators of rat KCNQ2 potassium channel | CHO-K1 KCNQ2, FluxOR thallium flux fluorescence; stronger effect = higher value | B-score at 10 µM | hit rate 0.54% among 310,000 | AID 2239, 2010;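 active = fluorescence ratio B-score at least 3 SD of library B-scores, with initial fluorescence B-score within 3 SD, cut at about 5.3 in these data; same plate scores as AID 2156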;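 also: B-score of peak minus minimum over baseline fluorescence ratio after K+ and Tl+ stimulus; positive B-score means potentiation of KCNQ2 with more thallium influx and brighter signal; only the inactives scoring about 0 or higher are listed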
Target sequence (O88943 whole entry, looked up): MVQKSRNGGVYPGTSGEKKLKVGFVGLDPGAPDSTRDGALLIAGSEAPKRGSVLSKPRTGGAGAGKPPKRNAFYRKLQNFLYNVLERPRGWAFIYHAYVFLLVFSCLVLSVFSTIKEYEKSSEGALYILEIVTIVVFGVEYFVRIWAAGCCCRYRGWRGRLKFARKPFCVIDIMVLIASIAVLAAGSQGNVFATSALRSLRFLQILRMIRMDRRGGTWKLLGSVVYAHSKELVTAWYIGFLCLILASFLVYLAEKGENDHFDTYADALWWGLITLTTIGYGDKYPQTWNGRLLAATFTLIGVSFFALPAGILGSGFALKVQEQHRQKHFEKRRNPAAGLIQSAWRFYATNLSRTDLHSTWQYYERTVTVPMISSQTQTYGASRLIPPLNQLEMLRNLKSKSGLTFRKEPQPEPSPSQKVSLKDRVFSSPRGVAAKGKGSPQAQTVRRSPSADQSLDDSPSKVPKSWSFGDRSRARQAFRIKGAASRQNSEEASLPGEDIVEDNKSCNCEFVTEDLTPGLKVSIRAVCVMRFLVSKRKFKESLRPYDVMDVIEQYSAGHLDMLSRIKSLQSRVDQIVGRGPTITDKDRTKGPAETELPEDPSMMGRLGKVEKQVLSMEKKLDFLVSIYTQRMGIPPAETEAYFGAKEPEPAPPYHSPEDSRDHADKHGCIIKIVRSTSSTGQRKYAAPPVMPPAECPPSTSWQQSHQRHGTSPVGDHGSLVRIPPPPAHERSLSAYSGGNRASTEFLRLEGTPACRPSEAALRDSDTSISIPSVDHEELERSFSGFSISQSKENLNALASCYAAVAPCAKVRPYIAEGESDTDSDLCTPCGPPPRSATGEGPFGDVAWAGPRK
KCNQ2 enhance baseline – second read-out of KCNQ2 enhance, no call of its own (marks repeat the call); B-score; compound at 10 µM; measured here: initial fluorescence intensity artifact check;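 brightness before thallium and not channel activity; 0 = typical well and far values either way flag optical interference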
Numbers without * were called inactive. These rows are one share of the data, so the mix of outcomes need not match the whole.

The first 2 records as a preview:
SMILES	KCNQ2 enhance	KCNQ2 enhance baseline
CCn1c(SCC(=O)N2CCOCC2)nc2c([nH]c3ccccc32)c1=O	0.67	0.49
COc1ccc([N+](=O)[O-])cc1N(CC(=O)NCCSc1ccc(C)cc1)S(C)(=O)=O	0.1	-1.9

The listing (from the top)
SMILES	KCNQ2 enhance	KCNQ2 enhance baseline
CCn1c(SCC(=O)N2CCOCC2)nc2c([nH]c3ccccc32)c1=O	0.67	0.49
COc1ccc([N+](=O)[O-])cc1N(CC(=O)NCCSc1ccc(C)cc1)S(C)(=O)=O	0.1	-1.9
COc1cc(C2C(C#N)=C(C)NC(C)=C2C#N)cc(OC)c1OC	1.9	-0.26
COc1ccccc1CCN=C(N)NS(=O)(=O)c1cccs1	0.58	0.05
Cc1cc(C)cc(N2CCCC2=O)c1	1	-0.42
COC(CNC(=O)C1CCN(C(=O)c2cc3oc(C)cc3n2Cc2c(F)cccc2Cl)CC1)OC	2	-1.3
Cn1c(=O)c(C(=O)CN2CCc3ccccc32)c(N)n(Cc2ccccc2)c1=O	0.14	0.45
CNC(=O)NC(=O)CSc1nc2sccc2c(=O)n1-c1ccccc1	0.2	0.53
O=C(Nc1cccc(-c2nc3cccnc3s2)c1)C1c2ccccc2Oc2ccccc21	0.62	0.23
CC(C)(C)c1nn(-c2ccccc2)c2[nH]c(=O)c(CNCc3ccco3)cc12	0.52	0.28
CCOc1cccc(OCCOCCNC(C)(C)C)c1	0.91	0.07
CCOC(=O)NCC(C#CCN(CC)CC)N(CC)CC (stereo not given)	2.4	-1.2
Cc1ccc(Nc2nc(N)nc(CSc3nncn3C)n2)cc1	1.3	2.4
CN(C)C(CNC(=O)CSc1nc2sc3c(c2c(=O)n1C)CCC3)c1ccccc1 (stereo not given)	0.31	-0.03
CN=Cc1c(NC)nc2c(C)cccn2c1=O	1.4	-1.3
Cc1cccc(N)c1SC1CCCCC1O (stereo not given)	0.73	2.7
COc1cc(NS(=O)(=O)c2ccc(NC(=S)NC(=O)c3ccc(F)c(F)c3)cc2)nc(OC)n1	0.62	-1.9
CC1CC(C)(C)NC(=S)N1CCCC(=O)N1CCN(c2ccc(F)cc2)CC1 (stereo not given)	1.4	1.1
CCOC(=O)c1cnc2cc(C)ccn2c1=O	1.9	-0.77
Nc1cc(=O)[nH]c(SCCSc2ccccc2F)n1	1.2	-1.2
COc1cc(Cl)cc(/C=C/c2ccc3cccc(O)c3n2)c1OC	2.6	0.08
CNc1nc(Cl)c(SC)c(NCc2cccc(OC)c2)n1	0.52	-1.1
O=C(NC1CCCC1)c1c[nH]c2ccc(F)cc2c1=O	0.32	0.27
Cc1ccc(C)c(S(=O)(=O)NCc2ccc(C(=O)NCc3ccco3)cc2)c1	1.3	3.6
Cc1nn(Cc2ccccc2Cl)c(C)c1NC(=O)/C=C/c1cnn(C)c1	0.79	0.93
O=C(c1cnc2n(c1=O)CCS2)N1CCCc2ccccc21	0.11	3
COc1cccc(C2C(C(=O)c3cc4cccc(OC)c4o3)=C(O)C(=O)N2c2cc(C)on2)c1OC (stereo not given)	0.78	-0.6
O=c1cc(NCc2ccccc2)nc2n1CCCS2	1.3	-1.1
CN(C)Cc1ccccc1COc1ccccc1	0.22	-3
COc1cc(C(=O)O/N=C(\N)c2ccccn2)cc(OC)c1OC	0.05	1.9
COc1cccc(OCCn2c(C)c(/C=N/n3cnnc3)c3ccccc32)c1	0.28	1.6
CCCC(=O)Nc1ccc2nc(SCC(=O)N3CCCC3)sc2c1	1.9	-1.3
O=[N+]([O-])c1cccc(-c2ccc(SCc3ccccn3)nn2)c1	0.77	-0.51
O=C(Nc1ccnn1C1CCN(C2CCCC2)CC1)c1ccccc1Cl	2.3	0.61
CCCC(=O)N1CCN(c2nc3c(OC)ccc(Cl)c3s2)CC1	1.2	-0.85
CC(C(O)C12CC3CC(CC(C3)C1)C2)N1CCCCC1 (stereo not given)	0.33	2
COC(=O)C1=C(C)N=C2SC(C#N)=C(N)N2C1c1cccc(OC)c1 (stereo not given)	0.34	-0.01
CCn1ncc(C2=NOC(C(=O)NCc3ccc(Cl)cc3)C2)c1C (stereo not given)	0.01	-0.01
CCOC(=O)N1CCN(C(=S)NC(=O)c2cncc(Br)c2)CC1	0.08	-1.1
FC(F)(F)c1cccc(NC(=S)NNC(=S)Nc2cccc(C(F)(F)F)c2)c1	2.8	-0.14
O=c1cc(O)n(C2CCCCCC2)c(=O)[nH]1	0.09	1.2
O=C(Nc1ccc(S(=O)(=O)NC2=NCCCCC2)cc1)c1ccco1	0.93	1.4
O=C(O)COn1c(-c2ccc(Cl)cc2)nc2ccc(Cl)cc21	0.01	-0.21
CCOC(=O)C(NC(=O)CC)(Nc1ccc(S(N)(=O)=O)cc1)C(F)(F)F (stereo not given)	0.76	0.5
O=C(/C=C/c1ccccc1)NCCOc1ccccc1	1	0.02
C/C(=N\NS(=O)(=O)c1ccc(Cl)cc1)c1ccc(NC(=O)c2ccco2)cc1	1.1	-0.66
COc1cc(NC(=O)COC(=O)C2CC2)c(C)cc1[N+](=O)[O-]	1.1	0.74
O=C1NC(=S)N/C1=C/c1cccn1-c1ccc([N+](=O)[O-])cc1	1.1	-0.15
CC(NC(=O)CCN1C(=O)c2ccccc2C1=O)c1ccc2c(c1)CCCC2 (stereo not given)	1.7	-0.56
O=C(C1CCC(CNS(=O)(=O)c2cccs2)CC1)N1CCCCC1 (stereo not given)	0.79	2.1
COc1cccc(/C=C2\SC(N3CCC(C)CC3)=NC2=O)c1OC	1.2	-0.49
O=C(CSc1nnc(-c2cccc(F)c2)o1)NC1CCCC1	0.09	4.5
O=S(=O)(c1cc(Cl)cc(Cl)c1)N1CCCC1c1nc2ccccc2s1 (stereo not given)	0.46	0
CS(=O)(=O)c1cccc(-c2nnc(NC(=O)c3ccc(S(=O)(=O)N4CCCC4)cc3)o2)c1	0.36	0.84
Cc1ccc(NC(=O)CCC(=O)NNC(=O)Nc2cccc(Cl)c2)c(C)c1	0.88	1.2
CNC(=O)c1ccc(N(Cc2ccccc2C)S(C)(=O)=O)cc1	0.1	0.65
CCCCN(CC)Cc1c(O)ccc2c3c(c(=O)oc12)CCC3	0.62	0.22
CC(C)CCOc1ccc(Cl)cc1CN1CCOCC1	0.19	-0.52
COc1ccccc1N(CC(=O)NCCN1CCOCC1)S(=O)(=O)c1ccc(C)cc1	1.5	-1.3
COc1ccc(OC)c(CNC(=O)CCNC(=O)Cn2ccc3ccccc3c2=O)c1	0.81	-0.31
(cont.)
SMILES	KCNQ2 enhance	KCNQ2 enhance baseline
CC12CN3CC(C)(CN(C1)C3c1cc(Br)ccc1O)C2=O (stereo not given)	0.97	-0.06
CCOC(=O)N1CCN(Cc2nc3c(c(=O)[nH]c(=O)n3C)n2CCCc2ccccc2)CC1	0.39	-0.57
O=C(Nc1sc2c(c1C(=O)O)CCCC2)c1cccs1	1.2	-0.18
C#CCn1cnc2c(oc3ccccc32)c1=O	0.01	1.2
Cc1cc(NC(=O)CSc2nc(=O)cc(N)n2-c2ccc(C)c(C)c2)no1	1	1.4
COc1cc(/C=N/Nc2nc(C)nc3c2cnn3-c2ccccc2)ccc1O	2.3	-1.5
Cc1ccc(-n2c(N)c(C(=O)Nc3c(C)n(C)n(-c4ccccc4)c3=O)c3nc4ccccc4nc32)cc1	1.3	0.41
CC(Nc1cc(=O)n(C)c(=O)n1C)c1ccccc1 (stereo not given)	1.8	3
N#C/C(=C\c1ccc(O)c([N+](=O)[O-])c1)C(=O)NCc1ccccc1	0.12	-0.8
O=C(c1cccc([N+](=O)[O-])c1)N1CCN(c2ccc(N3CCOCC3)nn2)CC1	2.2	-0.41
CCOC(=O)C1=NN(C(=O)c2cccc(Br)c2)C(O)(C(C)(C)C)C1 (stereo not given)	22*	-0.4*
Cc1c(NC(=O)c2cc(-c3ccc(Br)cc3)on2)c(=O)n(-c2ccccc2)n1C	0.27	-0.39

7 compounds already listed, arranged by length of the SMILES, smallest number first:
SMILES	KCNQ2 enhance	KCNQ2 enhance baseline
C#CCn1cnc2c(oc3ccccc32)c1=O	0.01	1.2
CC(Nc1cc(=O)n(C)c(=O)n1C)c1ccccc1 (stereo not given)	1.8	3
CC12CN3CC(C)(CN(C1)C3c1cc(Br)ccc1O)C2=O (stereo not given)	0.97	-0.06
COc1cc(/C=N/Nc2nc(C)nc3c2cnn3-c2ccccc2)ccc1O	2.3	-1.5
N#C/C(=C\c1ccc(O)c([N+](=O)[O-])c1)C(=O)NCc1ccccc1	0.12	-0.8
Cc1c(NC(=O)c2cc(-c3ccc(Br)cc3)on2)c(=O)n(-c2ccccc2)n1C	0.27	-0.39
CCOC(=O)N1CCN(Cc2nc3c(c(=O)[nH]c(=O)n3C)n2CCCc2ccccc2)CC1	0.39	-0.57

Of the compounds above, these have a CF3 group:
SMILES	KCNQ2 enhance	KCNQ2 enhance baseline
FC(F)(F)c1cccc(NC(=S)NNC(=S)Nc2cccc(C(F)(F)F)c2)c1	2.8	-0.14
CCOC(=O)C(NC(=O)CC)(Nc1ccc(S(N)(=O)=O)cc1)C(F)(F)F (stereo not given)	0.76	0.5

The main list resumes, repeating the 2 entries before the break.
SMILES	KCNQ2 enhance	KCNQ2 enhance baseline
CCOC(=O)C1=NN(C(=O)c2cccc(Br)c2)C(O)(C(C)(C)C)C1 (stereo not given)	22*	-0.4*
Cc1c(NC(=O)c2cc(-c3ccc(Br)cc3)on2)c(=O)n(-c2ccccc2)n1C	0.27	-0.39
Cc1ccc(NC(=S)NC(=O)c2sc3ccccc3c2Cl)c(C(=O)O)c1	14*	1.4*
Cc1ccc(OCC(=O)NNC(=O)c2ccoc2C)c(Br)c1	1.3	-0.18
COc1ccc(N2CC(NS(=O)(=O)c3ccc4ccccc4c3)CC2=O)cc1OC (stereo not given)	0.51	0.23
O=C(O)C1=C[C@H](c2ccc3c(c2)OCO3)C[C@H](OCc2ccc(CO)cc2)O1	0.2	1.6
CC(=O)c1c(C)[nH]c(C2=NNC(=NCc3ccccc3)SC2)c1C	0.02	1.4
O=C1C=C(OCc2ccccc2)CN1	1.2	0.01
O=C(/C=C/c1cccc([N+](=O)[O-])c1)Nc1cc(C(=O)O)cc(C(=O)O)c1	0.44	0.08
COc1cc(C(=O)OCC(=O)N2CCC(Cc3ccccc3)CC2)cc(OC)c1OC	5.6*	0.33*
CO/N=C/CC(=O)c1cnc(-c2ccc(Cl)cc2)s1	0.02	-0.34
O=C(O)COc1ccc(S(=O)(=O)NCCc2ccccc2)cc1	0.65	0.85
O=c1[nH]c2ccc(S(=O)(=O)N3CCCCC3)cc2[nH]c1=O	0.9	-0.98
CN(Cc1ccccc1)C(=O)CSc1nc2cc(C(=O)N3CCC(C(N)=O)CC3)ccc2c(=O)n1-c1ccccc1	0.25	-1.2
CC(NC(=O)CCNS(=O)(=O)c1cccc2nsnc12)c1ccccc1 (stereo not given)	0.28	0.15
O=C(O)c1ccccc1Nc1cc(Cl)c2nonc2c1[N+](=O)[O-]	0.04	-0.02
CN(c1ccccc1)S(=O)(=O)c1ccc(Cl)c(C(=O)OCC(=O)N2CCOCC2)c1	1.3	1.3
Cc1noc(C)c1Cc1ccc(O)cc1	0.16	0.62
COc1ccccc1C(=O)N/N=C(\C)c1cccnc1	2	0.91
COC(=O)c1ccc(S(=O)(=O)N2CCc3ccccc3C2)cc1	1.6	-1.7
CS/C(=N\N(C)C(N)=O)c1ccccc1	0.44	-1.3
CCc1noc(C)c1C(=O)Nc1ccc(S(=O)(=O)N2CCC(C)CC2)cc1	0.02	-1.8
COc1ccc(CCNC(=O)C2CCN(S(=O)(=O)c3ccc(Cl)cc3)CC2)cc1OC	0.43	0.36
COc1ccc(CC(=O)Nc2cccc(-c3ccc4nnc(C)n4n3)c2)cc1	0.85	-0.13
CCOCC(=O)OCC(=O)Nc1cc(OC)c([N+](=O)[O-])cc1C	2.2	-0.51
COc1cc(/C=N/NC(=O)c2ccoc2C)ccc1OCCN1CCCCC1	0.73	-1.1
CCOC(=O)N1CCC(NC(=O)CCC(=O)N2CC(C)Oc3ccc(C)cc32)CC1 (stereo not given)	0.95	0.03
CCCOc1ccc(Cc2nn3c(=O)/c(=C/c4ccco4)sc3nc2=O)cc1	0.07	0.34
O=C(COC(=O)CCc1c[nH]c2ccccc12)NC1CCS(=O)(=O)C1 (stereo not given)	0.02	-0.54
Cc1ccc(S(=O)(=O)N(C)C)cc1NC(=O)c1n[nH]c(=O)c2ccccc12	2.2	1.4
Cc1nc2c(-c3ccc(Cl)cc3)cnn2c2c1CCC2	1.7	-0.58
CC(C)(C)C(=O)Nc1cc(C(F)(F)F)ccc1N1CCOCC1	0.45	0.09
CCOC(=O)c1c(-c2ccccc2Cl)csc1NC(=O)c1cc(S(=O)(=O)N2CCOCC2)ccc1C	0.84	1
O=C(Nc1nc2ccccc2[nH]1)NC1CCCCC1	0.43	-1.4
CCn1c(SCc2ccc([N+](=O)[O-])cc2)nnc1C(C)NC(=O)c1ccc(C)cc1 (stereo not given)	0.6	-0.08
CC(=O)c1ccc(NC(=O)/C(=C\c2cccs2)NC(=O)c2ccco2)cc1	0.5	-1.2
c1ccc2c(c1)c1ccccc1n1c(-c3ccc4c(c3)OCO4)nnc21	0.06	2.4
O=C(NCc1ccc2c(c1)OCO2)c1cccc(Cl)c1	1.9	0.55
O=C1CSc2ccc(C(=O)NCCC3=CCCCC3)cc2N1	0.92	0.08
Cc1cc(NCc2ccc(F)cc2Cl)n2nnnc2n1	1.2	0.04
Cn1c(=O)c2ncn(CC(=O)N/N=C/c3ccco3)c2n(C)c1=O	0.96	-1.9
O=C(CN1CCCCCC1)Nc1cccc([N+](=O)[O-])c1	0.33	-0.46
O=C(O)C1CCCCC1C(=O)NC(c1ccccc1)c1ccccc1 (stereo not given)	0.83	-2.8
Oc1ccccc1N=Cc1c(O)ccc2ccccc12	0.77	1
COc1ccc(NC(=O)c2cccc(F)c2)cc1Cl	2.5	-0.74
Cc1cccc2cc3c(nc12)SC(=NCC1CCCO1)N(Cc1ccco1)C3 (stereo not given)	0.33	-0.63
CC(=O)N1CCCc2cc(S(=O)(=O)Nc3ccc4c(c3)OCO4)ccc21	1.1	1.9

Source: PubChem (Johns Hopkins Ion Channel Center)
